# Screening data as filed in PubChem.
# miR-21 reporter – raises the signal of a miR-21 reporter; AID 2288; HeLa miR-21 FLuc reporter, luciferase, 48 h; 340,000 tested, under 10 active; Potency, µM (titrated, usually from 38.3 µM), inactives show top-dose reporter change, positive = more light; active = well fitted rising curve with a large enough effect; inconclusive = small, poorly fitted or top-dose-only effect; inactive = no such curve, though single readings can be large or run the other way;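 further: % of control where 0% means no effect; miR-21 action dims this reporter so a rising signal means less miR-21 action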
#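 Compounds were titrated across several concentrations (up to approximately 40 uM) and incubated 48 hours with HeLa miR-21-FLuc reporter cells (miR-21 target sequence downstream of FLuc, endogenous miR-21). Readout was firefly luciferase luminescence after lytic detection reagent.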
# * marks the source's active call; other numbers are inactive results; ? = inconclusive; [ ] = dose if it differs, or a comment. These rows are one share of the data. The share of hits here may be higher or lower than overall.
SMILES,miR-21 reporter
Cc1ccc(-n2nc3cc(C)c(NC(=O)COc4ccccc4)cc3n2)cc1,-2%
CC(=O)N1CCc2c(sc3c2c(=O)n(-c2ccccc2Cl)c(=O)n3C)C1,-3%
COc1ccc(N2Cc3ccc(C(=O)N/N=C\c4ccc(O)cc4O)cc3C2)cc1,-21%
CCOc1cccc(Nc2nn(-c3ccc(OC(F)(F)F)cc3)nc2C(C)=O)c1,-1%
O=c1c2cccnc2n(Cc2ccccc2F)c(=O)n1Cc1ccc(F)cc1,-5%
COc1ccc(-c2nc(SCC(=O)NC3CCCC3)c(-c3ccc(C)cc3)[nH]2)cc1OC,11%
CCOc1ccccc1NC(=O)c1cc2cc(C)ccc2n1C,14%
CCN(CC)S(=O)(=O)c1ccc(C(=O)Nc2nc3c(Cl)cc(Cl)cc3s2)cc1,16%
CC(C)CN(CCNC(=O)c1cc(-c2ccc(Cl)s2)nc2ccccc12)CC(C)C,0%
CCN(Cc1ccccc1)Cc1c(O)ccc2c(=O)c(-c3ccccc3Cl)c(C(F)(F)F)oc12,-2%
CCOC(=O)CC(=O)CSc1nc2ccccc2c(=O)n1CCc1ccc(S(N)(=O)=O)cc1,28%
CCOC(=O)C1CCCN(C(=O)Cn2ncc3c(C)n(Cc4ccc(F)cc4)c(C)c3c2=O)C1 (stereo unspecified),26%
COc1ccc(CCNC(=O)CCN2N=C(c3ccccc3)CCC2=O)cc1OC,0%
Cc1cccc(C)c1NC(=O)C1CCCN(S(=O)(=O)c2c(C)noc2/C=C/N(C)C)C1 (stereo unspecified),-7%
COc1cc2c(cc1OC)n(CC(=O)c1ccc(F)cc1)c(=O)n1nc(CCn3nc(C)cc3C)nc21,4%
CCCCNc1nc(Oc2ccc(=O)n(C)n2)nc(N2CCOCC2)n1,3%
CC(C)(C)OC(=O)N1CCC(c2c(C(=O)N3CCN(c4ccccc4F)CC3)cnn2-c2ccccc2Cl)CC1,-6%
Cc1cccc(S(=O)(=O)c2cn(C)c3cc(N4CCN(c5ccc(F)cc5)CC4)c(F)cc3c2=O)c1,1%
O=C1CN(C(=O)c2ccc(S(=O)(=O)N3CCCCC3)cc2)C(c2ccc(F)cc2)c2cc(Br)ccc2N1 (stereo unspecified),18%
Cc1cc(C)c(NC(=O)c2sc3nc(C)cc(C)c3c2N)c(C)c1,8%
CCOc1ccc(C(=O)Nc2ccc3nc(Nc4cccc(C(F)(F)F)c4)cc(C)c3c2)cc1OCC,-2%
Cc1ccc(NC(=O)C2CCN(C(=O)c3cnn(-c4ccccc4)c3-n3cccc3)CC2)cc1Cl,28%
NC(=O)CSc1ncc2c(n1)-c1ccccc1N(Cc1ccc(Cl)cc1)S2(=O)=O,-3%
CCC(=O)N1CCc2cc(CNC(=O)c3ccc(OC)cc3)ccc21,-6%
Cc1cc(C)cc(NC(=O)CCN2C(=O)c3ccccc3Sc3ncccc32)c1,4%
CCOC(=O)C1CCN(C(c2ccc(C)cc2)c2c(O)cc(C)n(CCOC)c2=O)CC1 (stereo unspecified),-1%
CCOC(=O)c1scc(-c2ccc(C)cc2)c1S(=O)(=O)Nc1cccc(CC)c1,2%
CCOc1ccc(C(=O)Nc2ccc(S(=O)(=O)N3CCCCC3c3cccnc3)cc2)cc1 (stereo unspecified),?
COc1ccc(-c2nc3ccc(NS(C)(=O)=O)cc3o2)cc1,-77%
COc1ccc(NC(=O)Cn2c(=O)n(Cc3nc(-c4ccccc4)no3)c(=O)c3cc4c(cc32)OCO4)cc1Cl,0%
Cc1ccc(-n2ncc3c(N4CCN(Cc5ccccc5)CC4)ncnc32)cc1C,15%
CCCCN(CC)CCCNC(=O)c1sc2nc(C)cc(C)c2c1-n1cccc1,-8%
Cc1ccc(-c2cc(C(F)(F)F)n3nc(C(=O)Nc4sc5c(c4C#N)CCC(C)C5)cc3n2)cc1 (stereo unspecified),-5%
CCCCC[C@]12Cc3ccccc3C(O1)C1=C(CC(C)(C)CC1=O)O2,-1%[7.66 µM]
CC(C)c1ccc(NC(=O)C2CCCN2S(=O)(=O)c2ccc3nc(-c4ccccc4)[nH]c3c2)cc1 (stereo unspecified),10%
CCCCNC(=O)c1c(C)oc2ncn(CC(C)C)c(=O)c12,5%
Cc1ccc(S(=O)(=O)c2nnn3c2nc(NCc2cccs2)c2sccc23)cc1C,-26%
COc1cccc(C(=O)NC(=NCCc2c[nH]c3ccc(OC)cc23)Nc2nc(C)cc(C)n2)c1,21%
COC(=O)c1ccccc1NC(=O)c1cc2nc(-c3ccccc3)cc(-c3ccccc3)n2n1,-1%
Cc1ccc(NC(=O)Cn2c(=O)n(CCc3ccccc3)c(=O)c3c4c(sc32)CCCC4)c(C)c1,0%
Cc1cc(C)cc(-n2ccnc2SCC(=O)Nc2nnc(C)s2)c1,22%
O=C(NCCc1ccccc1)c1ccc2c(c1)N(Cc1ccc(F)cc1)C(=O)CS2,24%
Cc1cccc(C)c1-n1ncc(C(=O)O)c1C1CCN(C(=O)OC(C)(C)C)CC1,-6%
Cc1ccc2[nH]c3c(=O)n(CC(=O)Nc4ccc(Br)cc4C)ncc3c2c1,-4%
CSc1ccc(C2c3c(oc4cc(C)cc(C)c4c3=O)C(=O)N2CCO)cc1 (stereo unspecified),-22%
CCOc1ccc(N2CC(NC(=O)c3ccc(S(=O)(=O)N4CCOCC4)cc3)CC2=O)cc1 (stereo unspecified),0%
O=c1oc2c3c(ccc2c2ccccc12)OCN(Cc1cccc(Cl)c1)C3,-7%
CCC(C)NC(=O)Cn1c(=O)n(-c2ccc(Cl)c(Cl)c2)c(=O)c2c(C)c(C(=O)N(CC)CC)sc21 (stereo unspecified),-6%
Cc1ccc(C2Nc3ccccc3-n3c(-c4ccccc4)c4c(=O)n(C)c(=O)n(C)c4c32)o1 (stereo unspecified),-10%
Cc1[nH]c2ccccc2c1C1(O)C(=O)N(Cc2ccccc2)c2ccc(Cl)cc21 (stereo unspecified),?

# Next results follow.
SMILES,miR-21 reporter
COc1ccc2oc(=O)c(C(=O)NCCc3c(C)[nH]c4c(C)cccc34)cc2c1,7%
Cc1csc2nc(COc3ccccc3NC(=O)c3ccccc3Cl)cc(=O)n12,4%
Cc1ccc(Cl)cc1NC(=O)Cn1c(=O)cc(C)c2c(C)nn(C)c21,-4%
O=C(CCCn1c(=O)c2cccn2c2ccc(F)cc21)NCc1ccc(Cl)cc1,0%
Cc1nc(N2CCOCC2)c2c(C(=O)N3CCN(c4cccc(C)c4C)CC3)c(C)oc2n1,?
CCN1CCN(c2cc(C)c3cc(NC(=O)c4cccc(C(F)(F)F)c4)ccc3n2)CC1,-13%
CCOc1ccc(NC(=O)CN(Cc2ccccc2)S(=O)(=O)c2ccc(Cl)cc2)cc1,-4%
COc1ccccc1-c1noc(-c2ccc(N3CCN(C)CC3)c([N+](=O)[O-])c2)n1,-4%
CCCOc1cccc(C(=O)Nc2cc(-c3nc4ccccc4[nH]3)ccc2C)c1,22%
COc1cccc(C(=O)NC2(C(F)(F)F)C(=O)Nc3c2c(=O)[nH]c(=O)n3-c2ccc(C)cc2)c1 (stereo unspecified),0%
CCOC(=O)c1c(NC(C)=O)c2c3c(sc2n1Cc1cc(C)ccc1C)CCCC3,-3%
Cn1c(=O)oc2cc(S(=O)(=O)NC(Cc3ccccc3)C(=O)NCc3ccc(F)cc3)ccc21 (stereo unspecified),0%
Cc1ccc(CNc2ncccc2-c2nc(-c3ccc(Cl)cc3)no2)cc1,-3%
COc1cccc(CNC(=O)C2CCCN(c3nnc(-n4c(C)ccc4C)s3)C2)c1OC (stereo unspecified),-4%
Cc1ccc(C)c(-c2ccc(=O)n(C(C)C(=O)Nc3ccccc3C(F)(F)F)n2)c1 (stereo unspecified),-1%
CNC(=O)c1c(NC(=O)c2ccc(S(=O)(=O)N3CCC(C)CC3)cc2)sc2c1CCC2,-7%
Cc1cccc(-n2ncc3c(N4CCCC(C)C4)ncnc32)c1 (stereo unspecified),?
Cn1c(=O)c2c(-c3ccc(Br)cc3)n(Cc3ccc(F)cc3)cc2n(C)c1=O,5%
Cc1ccc(C(=O)Nc2nnc(S(=O)(=O)N3CCCc4ccccc43)s2)cc1,0%
CCOc1ccc(CNC(=O)CN2C(=O)CSc3c2c(C)nn3-c2ccccc2)cc1,-3%
COc1ccc2oc(-c3ccc(C)c(NC(=O)c4ccc5c(c4)OCCO5)c3)nc2c1,-66%
CC(C)(C)C1CCc2c(sc(NC(=O)Cn3nnc(-c4ccccc4Cl)n3)c2C#N)C1 (stereo unspecified),-9%
COc1ccc(-c2nc(CNS(=O)(=O)c3ccccc3)cs2)cc1,5%
CCc1nnc(SC(CC)C(=O)NCCOC)c2cc3occc3n12 (stereo unspecified),?
Cc1nc2nc(SCC(=O)N(Cc3ccccc3)C(C)C)nn2c(C)c1Cc1ccccc1Cl,10%

# In the list so far, 2 have a cyano group.
SMILES,miR-21 reporter
Cc1ccc(-c2cc(C(F)(F)F)n3nc(C(=O)Nc4sc5c(c4C#N)CCC(C)C5)cc3n2)cc1 (stereo unspecified),-5%
CC(C)(C)C1CCc2c(sc(NC(=O)Cn3nnc(-c4ccccc4Cl)n3)c2C#N)C1 (stereo unspecified),-9%

# The list continues.
SMILES,miR-21 reporter
COc1ccc(C(=O)c2c(N)c(-c3nc(-c4ccc(OC)cc4)cs3)c3ccccn23)cc1,-2%
Cc1ccc2c(c1)CC(C)N2S(=O)(=O)c1nnc(NC(=O)c2ccccc2F)s1 (stereo unspecified),-28%
COc1cc2c(C(=O)Nc3ccc(C)cc3Br)cn(C)c(=O)c2cc1OC,7%
CC(NC(=O)c1cc2sccc2n1Cc1ccc(F)cc1)c1ccccc1 (stereo unspecified),-1%
Cc1ccc(C(=O)Nc2ccc(-c3cn4cccnc4n3)cc2)cc1C,-20%
O=C(Nc1ccc(C(=O)OCc2cc(=O)n3nc(C4CC4)sc3n2)cc1)c1cccc(F)c1,0%
CCOc1ccccc1NC(=O)CSc1nc2c(c(=O)[nH]1)CCC2,24%
COc1ccc(S(=O)(=O)NCCc2sc(-c3cccc(C)c3)nc2C)cc1,-6%
O=S(=O)(NCCc1nnc2ccc(SCc3ccc(Cl)cc3Cl)nn12)c1ccccc1,?
COc1ccc(-n2c(C)nc3c(cnn3-c3ccc(C)c(C)c3)c2=O)cc1Cl,24%
Cc1ccc2onc(CC(=O)Nc3ccc(C(C)C)cc3)c2c1,19%
Cc1ccccc1CSc1ccc(-c2cccs2)nn1,-5%
CCOC(=O)Cn1c(=O)n(C2CCCCC2)c2nc(-c3cccc(OC)c3)nc(C(N)=O)c21,-1%
COc1ccc(-c2nc(SCC(=O)N3CCCCC3C)n[nH]2)cc1 (stereo unspecified),8%
COc1ccc(N2CC(NC(=O)C(=O)c3c[nH]c4ccccc34)CC2=O)cc1 (stereo unspecified),-1%
Cc1ccccc1-c1noc(-c2ccccc2OCC(=O)Nc2cccc([N+](=O)[O-])c2)n1,6%
Clc1ccc(N2CCN(c3ncnc4c3cnn4-c3ccccc3)CC2)cc1Cl,5%
Cc1cc(C)c(NC(=O)CCN2C(=O)c3ccccc3Sc3ncccc32)c(C)c1,-7%
CC(=O)c1ccc(NC(=O)Cn2c(=O)cc(C)c3c(C)nn(-c4cccc(F)c4)c32)cc1,-1%
O=C(Nc1ccc2c(c1)CCCN2C(=O)c1cccs1)c1ccccc1C(F)(F)F,25%
COc1ccc2c(c1)c1c(c(=O)n(-c3cc(Cl)ccc3C)c(=O)n1CC(=O)N1CCCC1)n2C,-2%
CC(C)COc1ccc(C(=O)Nc2cc3nn(-c4ccccc4)nc3cc2Cl)cc1,-7%
CCOc1cc(CNC(=O)c2ccc(C)c(NC(=O)c3nsc4ccccc34)c2)ccc1OC,-1%
Cc1coc2c(C)c3oc(=O)c(CCC(=O)NCCc4ccc(Cl)cc4)c(C)c3cc12,-5%
COc1ccc(-n2nc3cc(C)c(NC(=O)Cc4ccc(Cl)cc4)cc3n2)cc1,-8%
CCc1ccc(NC(=O)C(=O)NCC(c2ccc3c(c2)OCO3)N2CCOCC2)cc1 (stereo unspecified),-1%
Cc1cccc(NC(=O)Cc2ccc(-n3c(C)nc4cccnc43)cc2)c1C,9%
O=C(CCn1nc(-c2ccc(Cl)cc2)c2ccccc2c1=O)Nc1ccc(OC(F)(F)F)cc1,3%
Cc1cccc(C)c1NC(=O)CN(Cc1ccc(Br)cc1)S(=O)(=O)c1ccccc1,5%
CC1CCc2onc(C(=O)N3CCN(c4ccccc4)CC3)c2C1 (stereo unspecified),-1%
CN(C)CCNC(=O)c1ccc2nc(CCc3ccccc3)oc2c1,-54%
O=C(CSc1nccn1Cc1ccccc1)Nc1ccc2c(c1)OCCO2,-29%
COc1ccc(-c2nc(C)c(CCNC(=O)c3ccco3)s2)cc1,-38%
CC(C)c1ccc(NC(=O)c2cc(S(=O)(=O)N(C)C3CCCCC3)ccc2F)cc1,18%
CC(=O)Nc1ccc(NC(=O)CSc2nnc3c4cc(Br)ccc4n(C)c3n2)cc1,-4%

# Molecules listed so far containing a nitro group on carbon, in the order listed:
SMILES,miR-21 reporter
COc1ccccc1-c1noc(-c2ccc(N3CCN(C)CC3)c([N+](=O)[O-])c2)n1,-4%
Cc1ccccc1-c1noc(-c2ccccc2OCC(=O)Nc2cccc([N+](=O)[O-])c2)n1,6%

# 2 records picked at random from the list so far, as already listed:
SMILES,miR-21 reporter
O=C(CSc1nccn1Cc1ccccc1)Nc1ccc2c(c1)OCCO2,-29%
CC(C)c1ccc(NC(=O)c2cc(S(=O)(=O)N(C)C3CCCCC3)ccc2F)cc1,18%
